# Source: PubChem (National Center for Advancing Translational Sciences (NCATS))
# NS1 inh – qHTS Assay for Inhibitors of Influenza NS1 Protein Function; Potency, µM (titrated, usually from 46.1 µM), for the others: top-dose activity, positive = more growth; AID 2326, 2010; actives 0.4% (n = 270,000); S. cerevisiae slowed by influenza A NS1, growth recovery by OD600; further: actives are rising curves; nearly all actives have a fitted effect of over 50% in size
#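 Read-out: OD600 growth recovery of NS1-expressing budding yeast. Cells grown overnight at 30C in -URA glucose medium, washed, resuspended and diluted 1:100 in 2% galactose assay medium, pH 6.0. Same strain lacking NS1 served as positive control.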
# Cruzain inh noDet – qHTS Assay for Promiscuous and Specific Inhibitors of Cruzain (without detergent). purified cruzain, Z-FR-AMC fluorescence, no detergent. Potency, µM, for inactives: max response, negative = inhibition, actives largely listed as inhibitors. actives 2.3% (n = 200,000). AID 1476, 2009; active means well fitted curve in the direction sought with a large enough effect; inconclusive means small, poorly fitted or top-dose-only effect, or another doubt; inactive means no such curve, though single readings can be large; an effect the other way counts as inactive or inconclusive;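 further: plate controls were enzyme without inhibitor for no effect and buffer without enzyme for full effect; nearly all actives have a fitted effect of over 40% in size; top concentration of the series not given in the record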
# Target sequence (P25779 123-467 limits assumed): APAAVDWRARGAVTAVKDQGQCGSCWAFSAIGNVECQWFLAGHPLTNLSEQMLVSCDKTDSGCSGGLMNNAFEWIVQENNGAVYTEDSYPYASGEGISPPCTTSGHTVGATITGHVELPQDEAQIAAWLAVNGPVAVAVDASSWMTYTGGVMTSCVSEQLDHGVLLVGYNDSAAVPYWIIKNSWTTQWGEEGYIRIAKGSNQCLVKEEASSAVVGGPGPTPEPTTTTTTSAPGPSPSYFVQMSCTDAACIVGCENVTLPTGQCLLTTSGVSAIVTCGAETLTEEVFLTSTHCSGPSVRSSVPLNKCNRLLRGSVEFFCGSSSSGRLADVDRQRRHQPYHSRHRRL
#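 Detergent-free condition (0.00005% Triton X-100) in acetate buffer pH 5.5 with DTT. 1.5 nM enzyme and compound were pre-mixed 15 min, then 2 uM Z-FR-AMC substrate added; reaction progress from fluorescence change between first and third reads (60 s).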
# Lassa entry inh – qHTS for Inhibitors of binding or entry into cells for Lassa Virus | Lassa virus pseudotype entry inhibition, cell reporter; control for the full effect not named in the record | Potency, µM (highest dose often 37.9 µM), for the others: top-dose activity change, negative = inhibition, usual class: inhibitors | actives 1.2% (n = 300,000); active means well fitted inhibition curve with a large enough effect; inconclusive means small, poorly fitted or top-dose-only effect, or effect the other way; inactive means flat fitted curve, though single readings scatter; tested in HEK293 cells; further: on the % scale 0 is the no-effect control and ±100 the full control effect; nearly all actives have a fitted effect of over 50% in size; luciferase read-out
# RE007 growth inh – qHTS Assay for Inhibitors of the HIV-1 protein Vpr; S. pombe RE007 Vpr strain, BacTiter-Glo ATP luminescence, 24 h; control for the full effect not named in the record; AID 651644, 2012; Potency, µM (top dose mostly 92.2 µM), for the others: at the top dose activity change, negative = less growth; actives 0.21% (n = 360,000); active = well fitted falling curve with a large enough effect; inconclusive = small, poorly fitted or top-dose-only effect; inactive = no such curve, though single readings can be large or run the other way;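 further: on the % scale 0 is the no-effect control and ±100 the full control effect; nearly all actives have a fitted effect of over 50% in size; the assay follows cell death caused by Vpr and the record does not say whether a fall means rescue or toxicity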
#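 Fission yeast strain RE007, carrying one chromosomally integrated HIV-1 vpr copy, was seeded at OD 0.01 in PMG+AL medium with 23 nL pinned compound. After 24 h at 30 °C and 99% humidity, viability was read by BacTiter-Glo luminescence.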
# StopGo reporter – High Throughput Screening for Foot and Mouth Disease Virus Antivirals; human cells with a luciferase reporter of 2A StopGo recoding; control for the full effect not named in the record; actives 1.2% (n = 410,000); AID 1159524, 2015; Potency, µM (doses to about 57.9 µM), for the others: at the top dose signal change, negative = less light; active = well fitted falling curve with a large enough effect; inconclusive = small, poorly fitted or top-dose-only effect; inactive = no such curve, though single readings can be large or run the other way; tested in HEK293T cells; further: on the % scale 0 is the no-effect control and ±100 the full control effect; nearly all actives have a fitted effect of over 45% in size; luciferase light after 4 h
# Cruzain Triton – qHTS Assay for Promiscuous and Specific Inhibitors of Cruzain (with detergent). Cruzipain (Trypanosoma cruzi), P25779. purified cruzain, Z-FR-AMC fluorescence, 0.01% Triton. Potency, µM, for inactives: max response, negative = inhibition, most hits filed as inhibitors. actives 0.43% (n = 200,000); active means well fitted curve in the direction sought with a large enough effect; inconclusive means small, poorly fitted or top-dose-only effect, or another doubt; inactive means no such curve, though single readings can be large; an effect the other way counts as inactive or inconclusive;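 further: plate controls were neutral wells for no effect and buffer without enzyme for full effect; nearly all actives have a fitted effect of over 40% in size; top concentration of the series not given in the record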
#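 15 min RT preincubation of 1.5 nM cruzain with compound, then 2 uM Z-FR-AMC added; kinetic AMC fluorescence, 60 s delta. Triton X-100 0.01%, pH 5.5.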
# SARS PLpro yeast – qHTS of Yeast-based Assay for SARS-CoV PLP. S. cerevisiae expressing SARS-CoV PLpro, growth rescue; control for the full effect not named in the record. Potency, µM (doses to about 32.9 µM), inactives show top-dose activity, positive = growth rescue. AID 485353, 2010. actives 0.19% (n = 330,000); further: 0% is about no effect; nearly all actives have a fitted effect of over 55% in size; growth read by luminescence after 48 h
# MARV entry inh – qHTS for inhibitors of binding or entry into cells for Marburg Virus. Marburg virus pseudotyped entry inhibition, cell reporter; control for the full effect not named in the record; about a third of the inactives were read at about 46 µM. Potency, µM (doses to about 37.8 µM), inactives show at the top dose activity change, negative = inhibition, hits mostly inhibitors. actives 1.8% (n = 300,000). AID 540276, 2011; active = well fitted inhibition curve with a large enough effect; inconclusive = small, poorly fitted or top-dose-only effect, or effect the other way; inactive = flat fitted curve, though single readings scatter; tested in HEK293 cells; about a fifth of its hits are not listed in these tables; further: on the % scale 0 is the no-effect control and ±100 the full control effect; luciferase read-out
# Starred values were filed as active, the others as inactive; u = inconclusive; x = not tested or not shown; & = joins results of further samples; [ ] = dose if it differs, or a comment. Unless noted, the call rests on the fitted dose curve; in most records, active means well fitted rising curve with a large enough effect; inconclusive means small, poorly fitted or top-dose-only effect; inactive means no such curve, though single readings can be large or run the other way. Potency means the concentration at half of the fitted maximal effect.
SMILES,NS1 inh,Cruzain inh noDet,Lassa entry inh,RE007 growth inh,StopGo reporter,Cruzain Triton,SARS PLpro yeast,MARV entry inh
Cc1ccc(N2CCN(S(=O)(=O)c3ccc4c(c3)oc(=O)n4C)CC2C)cc1 (stereo unspecified),-7%,x,x,5%,-24%,x,1%,x
Cc1ccc(N2C(=O)CC(c3ccsc3)C3=C2CC(C)(C)CC3=O)cc1 (stereo unspecified),-1%,1%,5%,12%,-29%,-5.8%,-2%,0%
COc1ccc(CNC(=O)c2noc3c2CCCCC3)cc1,-12%,10%,-22%,-17%,35%[activator],-0.7%,1%,10%
CNc1c(NC(=O)C2CCC(C)CC2)c(=O)oc2ccccc12 (stereo unspecified),-2%,x,15%[46.1 µM],-13%,0%,x,2%,-4%[46.1 µM]
Cc1ccc(NC(=O)Cn2c(=O)n(Cc3nc(-c4ccccc4)no3)c(=O)c3cc4c(cc32)OCO4)c(C)c1,x,-20%,-2%[46.1 µM],x,-6%,-0.2%,x,x
CC1=C(C(N)=O)C(c2ccc(Br)cc2)n2ncnc2N1 (stereo unspecified),2%,x,x,-6%,-13%,x,7%,x
O=C(C1CCC1)N1CCN(S(=O)(=O)c2ccccc2)CC1,x,x,0%,2%,-12%,x,-1%,-1%[46.1 µM]
CC1(C)CC(CC(=O)Nc2nccs2)(c2ccccc2)CCO1 (stereo unspecified),12%,6%,19%,37%,u,1.3%,-1%,4%
COc1ccc(Nc2oc(-c3ccc(Cl)cc3)nc2C#N)cc1,-2%,-19%,-4%,-8%,76%[activator],-24%,4%,u
CCOc1ccc(NC(=O)CN2CCN(C3c4ccccc4-c4ccccc43)CC2)cc1,-3%,4%,u,-6%,-7%,-11%,26%,-20%
CC(=O)c1ccc(NC(=O)C2CCN(S(=O)(=O)c3cccc4nonc34)CC2)cc1,-10%,x,11%,-6%,10%,x,-4%,4%[46.1 µM]
CCCCSc1nnc(-c2ccccc2N)c(=O)[nH]1,-51%,-4%,18%,-17%,x,1.3%,-35%,-2%
C/C=C\C=C/C(=O)Nc1cccc(C2=NOC3(C2)C[C@H](C(N)=O)N(C(=O)c2ccc(OC)cc2)C3)c1 (stereo partly specified),14%,x,x,4%,8%,x,3%,x
Cc1ccccc1NC(=O)COc1ccc2oc3c(c2c1)CCCC3,x,4%,5%[46.1 µM],x,-7%,1.6%,x,0%[46.1 µM]
Cc1oc(-c2ccc(C(=O)N(C)Cc3ccccc3)cc2)nc1CN1CCc2ccccc21,x,12%,-4%[46.1 µM],x,u,-6.1%,x,x
CCOc1ccc(-c2n[nH]c(C)c2Oc2ccccc2OC)c(O)c1,-93%,-15%,u,6%,x,-6.2%,9%,u
CCC(=O)N1c2ccccc2CC1C(=O)NCc1ccc(CC)cc1 (stereo unspecified),x,7%,8%[46.1 µM],x,-25%,-0.3%,x,x
CC(=O)C1(C)CCC2C3C=C(C)C4=CC(=O)CCC4(C)C3CCC21C (stereo unspecified),x,x,u,20%,-8%,x,x,11µM*
CCOc1ccc(C(=O)Nc2c(C)nc(Nc3ccccc3)nc2Nc2ccccc2)cc1OCC,x,u,-23%[46.1 µM],x,-17%,-13%,x,u
CCN(C(=O)CSc1n[nH]c(-c2cc(Cl)ccc2OC)n1)C1CCS(=O)(=O)C1 (stereo unspecified),x,x,-1%,-19%,-11%,x,2%,0%
N#C/C=C(/N)N1CCN(c2ccc(Cl)c(Cl)c2)CC1,-3%,u,1%,0%,-27%,-5.0%,1%,-8%
O=C1CN(S(=O)(=O)c2cccc(C(=O)O)c2)c2ccccc2N1,23%,x,16%[46.1 µM],5%,42%[activator],x,4%,u
Clc1ccc(C2CC(c3cccs3)n3ncnc3N2)cc1 (stereo unspecified),-3%,x,u,5%,-19%,x,1%,-11%[46.1 µM]
CCC1CCCCN1CCCNC(=O)C1CCN(c2ncnc3c2nc2n3CCCCC2)CC1 (stereo unspecified),-8%,x,x,3%,-6%,x,-4%,x
O=S(=O)(Nc1ccc2c(c1)OCCO2)c1cccs1,-8%,u,10%,1%,x,-3.0%,-6%,11%
# Later entries
SMILES,NS1 inh,Cruzain inh noDet,Lassa entry inh,RE007 growth inh,StopGo reporter,Cruzain Triton,SARS PLpro yeast,MARV entry inh
O=C(Oc1ccc2ccccc2c1)C1CCC1,13%,x,-7%[46.1 µM],2%,3%,x,-3%,-1%[46.1 µM]
CN(C)C(=O)Oc1cccc(-c2cn3cc(Cl)ccc3n2)c1,-11%,-4%,-9%,-20%,34%[activator],-6.5%,-15%,-15%
CCc1ccc(N(CC(=O)NC(C)(C)C)C(=O)CNC(=O)c2cccs2)cc1,24%,x,-20%,15%,-7%,x,1%,0%[46.1 µM]
Cc1ccc2c(c1)N(Cc1cccc(C#N)c1)C=NS2(=O)=O,2%,x,-19%[46.1 µM],9%,-23%,x,-1%,u
N#Cc1cccc(C(=O)Nc2cc(S(=O)(=O)N3CCOCC3)ccc2N2CCCC2)c1,x,x,u,u,-4%,x,-4%,u
CN(C)CC/C=C1/c2ccccc2Sc2c(O)cc(Cl)cc21,u,25µM*,-6%,8%,-6%,-15%,16%,u
Cc1ccc(S(=O)(=O)NCC(=O)OCc2cc(=O)oc3c(C)c(C)ccc23)cc1C,x,x,1%,2%,-11%,x,-3%,-5%
CCn1c(-c2nonc2NC(=O)c2ccccc2)nc2ccccc21,4%,4%,-3%,1%,u,-2.6%,0%,u
NC(N)=NC(N)=Nc1cccc(Cl)c1,-1%&1%,7%&2%,16%,-5%[18.4 µM],-19%&-7%&-22%,-4.2%&-2.9%,2%,8%&9%&8%&8%&8%&8%&8%
Cc1ccc(-n2c(O)c(C=NCCCn3ccnc3)c(=O)[nH]c2=O)cc1,-1%,x,-3%[46.1 µM],3%,1%,x,0%,u
Cc1ccc(S(=O)(=O)Cc2ccc(C(=O)NCCc3ccccc3)o2)cc1,-19%,x,x,-6%,-22%,x,3%,x
CCS(=O)(=O)c1cccc(C(=O)Nc2ccc(-c3nc4ccccc4s3)c(O)c2)c1,x,2%,-15%[46.1 µM],x,u,-5.2%,x,x
COc1cc(NC(=O)CCc2nnc3ccc(N4CCC5(CC4)OCCO5)nn23)cc(OC)c1,18%,x,x,2%,-9%,x,27%,x
C/C(=N\NS(=O)(=O)c1ccccc1)c1cccc(NC(=O)c2cccc(Cl)c2)c1,4%,-5%,u,10%,-16%,-11%,13%,-2%
COc1ccc(C(=O)NC(=S)NCc2cccnc2)cc1OC,0%,x,-12%[46.1 µM],-5%,0%,x,-1%,-22%
CC(C)CNS(=O)(=O)c1ccc(CCC(=O)N2CCN(Cc3ccccc3)CC2)cc1,-14%,7%,u,-18%,u,3.4%,5%,u
Cc1ccccc1CNC(=O)c1nn(-c2ccccc2F)nc1CO,x,-1%,19%[46.1 µM],x,-14%,2.6%,x,17%[46.1 µM]
CCOC(=O)C1CCCN(C(=O)c2cc(S(=O)(=O)N3CCCCC3)ccc2C)C1 (stereo unspecified),-9%,x,1%,-6%,u,x,-1%,-8%[46.1 µM]
CCOc1ccc(N=C2NC(=O)SC2CC(=O)OC)cc1 (stereo unspecified),-2%,x,4%[46.1 µM],-4%,20%,x,0%,-2%[46.1 µM]
CCOC(=O)c1cc(S(=O)(=O)N2CCN(c3cccc(C)c3C)CC2)[nH]n1,x,u,0%[46.1 µM],x,3%,-10%,x,x
CC1(c2ccccc2)C(C#N)C(=O)NC(=O)C1C#N (stereo unspecified),x,x,-4%[46.1 µM],3%,17%,x,x,-21%[46.1 µM]
O=C(CN1C(=O)CSc2cc(S(=O)(=O)N3CCCCCC3)ccc21)NCCc1ccccc1,-14%,-11%,u,-2%,6%,-3.9%,23%,-26%
COC(=O)c1sc(NC(=O)c2ccncc2)nc1C,-41%,x,u,u,26%,x,-9%,u
Cc1nc(N2CCN(C(=O)c3cccs3)CC2)c2c3c(sc2n1)CCCC3,-47%,x,u,24%,25µM*,x,1%,-3%[46.1 µM]
COC(=O)c1sccc1NC(=O)c1ccoc1C,-16%,1%,-2%,4%,x,-1.3%,4%,-4%
# Continued:
SMILES,NS1 inh,Cruzain inh noDet,Lassa entry inh,RE007 growth inh,StopGo reporter,Cruzain Triton,SARS PLpro yeast,MARV entry inh
N#Cc1cccc(NC(=O)COC(=O)C2CCC2)c1,x,x,5%,5%,-7%,x,-4%,-4%[46.1 µM]
Cn1nc(-c2ccc(OCC(=O)Nc3cccc(C(F)(F)F)c3)cc2)c2ccccc2c1=O,x,21%,2%[46.1 µM],x,u,-2.1%,x,4%[46.1 µM]
COc1ccc(C)cc1NC(=O)Cc1ccc(NC(=O)N2CCCCc3ccccc32)cc1,x,-3%,0%[46.1 µM],x,-12%,-3.3%,x,x
O=[N+]([O-])c1ccc(N2CCNCC2)cc1NCC1CCCO1 (stereo unspecified),9%,-4%,21%,-9%,-2%,-4.7%,6%,20%
Cc1ccc(-c2nc(N/N=C/c3cccc([N+](=O)[O-])c3)c3ccccc3n2)cc1,-6%,-5%,-29%,-5%,28%,-5.7%,0%,u
CCC(Oc1ccccc1)C(=O)Nc1ccc(S(=O)(=O)Nc2cnc3ccccc3n2)cc1 (stereo unspecified),-23%,u,5%,2%,44%[activator],-26%,-5%,-1%
Cc1ccccc1NC(=O)C(C)c1cccc(C(=O)c2ccccc2)c1 (stereo unspecified),-9%,-6%,1%,16%,-23%,0.9%,3%,u
CN(C)C(=O)CSc1nnc(Cc2ccc([N+](=O)[O-])cc2)o1,-19%,10%,28%,15%,x,1.8%,-18%,9%
CCOc1ccc(NS(=O)(=O)c2ccc(OCC(=O)NCc3ccncc3)cc2)cc1,-11%,x,-9%,3%,9%,x,2%,2%
CCOc1ccccc1/C=C(/C#N)C(N)=O,u,x,x,-5%,-11%,x,2%,x
